AF4-AF9 inh: inhibitors of AF4 peptide binding to AF9, primary screen, biochemical, AlphaScreen, biotin-AF4 peptide, FLAG-AF9, single point; inhibition, % at 10 µM; AID 651704, 2012; hit rate 0.47% among 350,000;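 active = every replicate reaching a set inhibition limit, whatever the replicate mean, cut at about 25% in these data; inconclusive = mean inhibition reaches that limit but some replicates miss it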;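 note: 0% = plate neutral control median and 100% = total signal loss; the record names both 10 and 1 µM as test concentration; the first replicate is given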
Target sequence (P42568 whole entry, looked up): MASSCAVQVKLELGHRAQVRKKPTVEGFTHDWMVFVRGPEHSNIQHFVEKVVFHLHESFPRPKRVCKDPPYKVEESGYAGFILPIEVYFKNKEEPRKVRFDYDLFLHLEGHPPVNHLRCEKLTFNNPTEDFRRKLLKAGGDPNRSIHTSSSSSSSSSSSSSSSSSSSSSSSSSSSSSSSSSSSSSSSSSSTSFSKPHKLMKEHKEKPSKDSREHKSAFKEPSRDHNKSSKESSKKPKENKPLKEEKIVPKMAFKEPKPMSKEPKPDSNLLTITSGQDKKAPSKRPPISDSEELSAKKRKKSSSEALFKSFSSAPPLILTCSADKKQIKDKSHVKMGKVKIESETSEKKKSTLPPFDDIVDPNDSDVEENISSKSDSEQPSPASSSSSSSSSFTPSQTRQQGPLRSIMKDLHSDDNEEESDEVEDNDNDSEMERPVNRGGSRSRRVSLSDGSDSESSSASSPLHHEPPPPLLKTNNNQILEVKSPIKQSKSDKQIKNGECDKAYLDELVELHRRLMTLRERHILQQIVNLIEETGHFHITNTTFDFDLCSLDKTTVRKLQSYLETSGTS
T cruzi inh: inhibitors of intracellular T. cruzi growth, primary screen, luminescence, NIH3T3 host cells | hit rate 1.4% among 300,000 | T. cruzi beta-gal in NIH3T3, 90 h | inhibition, % (no concentration beside the values) | AID 1885, 2009;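 active = mean inhibition across valid replicates above about 55%, limit read from the data; inconclusive = mean below that limit but half or more replicates reach it; inactive = mean below it, under half of replicates reach it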;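 note: signal also drops with host cell toxicity which is not excluded here; 0% = plate median of DMSO wells and 100% = zero luminescence signal; higher percent means less beta-gal luminescence so fewer parasites; stock transfer was 50 nL into about 50 µL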
Calb FLC: C. albicans growth inhibition with fluconazole, primary screen, CaCi-2 strain, Alamar Blue fluorescence; C. albicans CaCi-2 (fluconazole-resistant clinical isolate) + fluconazole, 48 h; growth inhibition, % (test concentration not listed); hit rate 0.57% among 300,000;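 active = most replicates above 75%; inconclusive = exactly half above 75%; inactive = most below 75%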;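 note: all wells also contain fluconazole at 8 µg/ml as a sub-toxic cotreatment; 0% = median of DMSO wells and 100% = median of geldanamycin control wells; wells of about 8 µL received 7.5 nL stock; the first replicate is given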
Vif A3G: inhibitors of Vif binding to APOBEC3G peptide, primary screen, biochemical, TR-FRET, GST-Vif 1-94, biotin-A3G peptide, dose response retest (AID 1117319); TR-FRET GST-Vif / biotin-A3G peptide binding; higher % means a stronger effect; test concentration not given here; strong numbers were not always called active; hit rate 0.57% among 260,000; Virion infectivity factor (Human immunodeficiency virus type 1 group M subtype B (isolate …; one-dose inhibition, %; IC50 in µM for titrated hits;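 active = above the screen mean plus three standard deviations and confirmed in dose response; inconclusive = results disagree or hit not tested in dose response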;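 note: Vif residues 1-94 fused to GST binding biotinylated APOBEC3G peptide 110-148; 0% = full assay without inhibitor and 100% = GST in place of GST-Vif; retest series ran down from 100 µM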
Ecoli rRNA inh: reduced GFP signal of wild-type E. coli, primary screen, bacterial rRNA inhibitor project, GFP/RFP fluorescence, OD600, single point. GFP signal change (wild-type ribosome), % (concentration not given with the values). E. coli WT GFP vs humanized-ribosome RFP mutants, 24 h; active compounds read low; DMSO median 0, no signal -100. AID 720706, 2013. hit rate 1.6% among 350,000;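 active = significant combined selectivity score with lowered wild-type GFP, culture density cut under 30%, mutant RFP and density less affected; inactive = any of these conditions unmet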; note: one replicate is shown; some compounds called inactive have numbers as strong as hits
Beta apoptosis: inhibitors of cytokine-induced beta cell apoptosis, primary screen, luminescence; AID 435005, 2010; hit rate 0.8% among 300,000; INS-1E cytokine-induced death, ATP luminescence, 48 h; percent of positive-control rescue, neutral wells zero; protection from apoptosis, % (no concentration beside the values);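 active = all replicates at 75% or more, or half of them and the mean; inconclusive = half reach 75% but not the mean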;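 note: 0% = cytokine-treated negative control wells and 100% = positive control rescue; higher means more ATP so stronger rescue from cytokine killing; wells of about 40 µL received 100 nL stock; the first replicate is given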
A1 inh: caspase 3/7 activation in MEF A1-2A-BIM cells, primary screen, A1 inhibitor project, cell-based, luminescence, HTS; Caspase-Glo 3/7 luminescence, 3 h; percent of clofoctol response, vehicle zero; hit rate 0.066% among 330,000; caspase activation, % (concentration not given with the values);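 active = over half of replicate activation scores above 10%, or exactly half above 10 with the replicate mean above 10; inconclusive = replicate mean below 10 yet half the replicates above 10; inactive = over half of replicates below 10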;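 note: wells of about 30 µL received 50 nL stock; many hits fall short of the cut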
RanGTP-Imp inh: inhibitors of RanGTP-importin-beta interaction, primary screen, biochemical, FRET, CFP-Ran, YFP-importin-beta, homogeneous; Ran GTPase (GTP-bound) - importin-beta complex; cell-free CFP-Ran/YFP-importin-beta FRET ratio; inhibition, % (concentration not given with the values); hit rate 1.1% among 300,000; AID 2216, 2009;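 active = most replicates above 15%; inconclusive = exactly half above 15%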;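 note: 0% = DMSO wells and 100% = Ran loaded with GDP instead of GTP; wells of about 40 µL received 100 nL stock; the first replicate is given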
Ecoli rRNA inh OD600: further read-out of Ecoli rRNA inh, marked with its call; OD600 change, %; measured here: OD600 growth;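 optical density of the mix in the first replicate; 0 = DMSO median and -100 = no signal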
Ecoli rRNA inh RFP: second read-out of Ecoli rRNA inh, no call of its own (marks repeat the call); RFP signal change, %; measured here: RFP humanized mutant strains;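 first replicate; 0 = DMSO median and -100 = no signal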
* marks the source's active call; other numbers are inactive results; ? = inconclusive; · = no result given; & = joins results of further samples.

SMILES	AF4-AF9 inh	T cruzi inh	Calb FLC	Vif A3G	Ecoli rRNA inh	Ecoli rRNA inh OD600	Ecoli rRNA inh RFP	Beta apoptosis	A1 inh	RanGTP-Imp inh
Cc1oc(-c2ccccc2)cc1C(=O)NCc1ccncc1	3.3	1	3	-9%	6	7	2.9	2	0.1	-3.5
CCOc1ccccc1N(CC(=O)Nc1cccc(OC)c1)S(=O)(=O)c1ccccc1	1.4	4	9	5%	-7	-9	1.2	2	0.3	0.2
COc1ccc2c(c1)nc(NCCCO)n2Cc1ccccc1	-40	-14	-5	7%	4	0	-4.5	-8	2.2	0.0
Fc1ccc(COc2ccc(-c3nnco3)cc2)c(Cl)c1	-1.5	5	16	·	-1	-17	-5.0	1	0.7	6.0
CN(C(=O)c1ccc(NC(=O)Cc2cccc(NC(=O)C3CCCN(C(=O)C4CCCC4)C3)c2)cc1)C1CCCC1 (stereo not given)	-8.8	·	·	·	-9	-8	6.5	-3	0.4	·
COc1cc(C)nc(Nc2nc(C)c(C(C)=O)s2)n1	·	-30	-1	9%	·	·	·	9	0.9	5.1
CN(CC(=O)Nc1cccc(F)c1)C(=O)c1cccnc1Sc1ccccc1	-8.8	-5	-5	-1%	6	6	1.0	-5	1.7	-0.3
Cc1nc(C(=O)Nc2ccc(Cl)cc2)nn1-c1ccc([N+](=O)[O-])cc1	·	36	?	30%	·	·	·	-1	1.2	2.8
C=CCC(CC=C)(C(N)=O)c1ccccc1	-1.6	-20	-13	1%	-2	-2	1.5	3	0.7	2.6
COC(=O)c1[nH]c2ccc(C)cc2c1NC(=O)Oc1ccccc1	·	-8	-3	-3%	·	·	·	9	0.4	-12

Of the compounds above, these have a halogen:
SMILES	AF4-AF9 inh	T cruzi inh	Calb FLC	Vif A3G	Ecoli rRNA inh	Ecoli rRNA inh OD600	Ecoli rRNA inh RFP	Beta apoptosis	A1 inh	RanGTP-Imp inh
Fc1ccc(COc2ccc(-c3nnco3)cc2)c(Cl)c1	-1.5	5	16	·	-1	-17	-5.0	1	0.7	6.0
CN(CC(=O)Nc1cccc(F)c1)C(=O)c1cccnc1Sc1ccccc1	-8.8	-5	-5	-1%	6	6	1.0	-5	1.7	-0.3
Cc1nc(C(=O)Nc2ccc(Cl)cc2)nn1-c1ccc([N+](=O)[O-])cc1	·	36	?	30%	·	·	·	-1	1.2	2.8

The list continues.
SMILES	AF4-AF9 inh	T cruzi inh	Calb FLC	Vif A3G	Ecoli rRNA inh	Ecoli rRNA inh OD600	Ecoli rRNA inh RFP	Beta apoptosis	A1 inh	RanGTP-Imp inh
CCCC(O)(CCC)C(=O)NN(C(=O)CCl)c1ccccc1	-3.4	17	-15	?	-2	15	2.5	21	0.9	-0.9
Cc1ccc(NC(=O)c2cc(-c3cccs3)on2)cc1C	-1.4	-6	-4	28%	5	14	9.5	-3	-2.8	7.8
Cc1c(/C=N/O)c2ccccn2c1C=O	-0.9	1	-2	7%	9	6	0.6	1	-0.1	-0.7
COc1ccc(-c2nnc(SCC(=O)NC(=O)NCc3ccccc3)o2)cc1	·	2	-10	-10%	·	·	·	-14	0.6	4.9
O=C(COc1ccccc1)Nc1ccccc1F	6.9	-3	-3	-4%	1	0	-2.3	-4	-5.3	1.7
CSc1ccc(OC2CCCCC2NS(=O)(=O)c2ccc(Cl)cc2)cc1 (stereo not given)	-3.1	13	-14	-5%	-28	-40	13	1	0.7	?
CC(Sc1n[nH]c(-c2cccs2)n1)C(=O)Nc1ccc(C(N)=O)cc1 (stereo not given)	-3.3	·	·	-9%	-2	-1	-0.5	-3	3.0	·
COCCCn1c(C(=O)NCCN2CCOCC2)cc2c(=O)n3ccccc3nc21	-1.8	-23	2	·	12	14	0.8	-6	0.4	5.8
O=[N+]([O-])c1cnc(Nc2ccc(Cl)cn2)c([N+](=O)[O-])c1	5.1	45	19	·	22	5	53	36	-1.3	0.6
O=C(CN1CCN(c2ccccn2)CC1)Nc1ccccc1Br	0.1	-4	8	-6%	-12	-20	-3.9	-6	2.1	0.4
COc1ccc([N+](=O)[O-])cc1NCc1cccc([N+](=O)[O-])c1	2.3	-5	3	0%	·	·	·	2	-0.2	-6.6
Cc1ccc(/C=N/NC(=O)c2csc3c2CCCC3)cc1	·	-19	-7	16%	·	·	·	39	0.0	4.2
Cc1ccc(C(=O)N2CCOCC2)cc1Cl	·	3	-1	23%	·	·	·	-4	0.1	1.5
Cc1cccc(-c2noc(-c3ccno3)n2)c1	2.5	4	-5	-4%	13	12	2.2	-4	-8.3	8.4
COc1ccccc1NC(=O)Nc1nc(CC(=O)NCc2ccc(F)cc2)cs1	-2.2	-17	4	2%	-5	2	2.2	12	0.2	0.4
COC(=O)C1=CN(Cc2ccc(OC)c(OC)c2)C=C(C(=O)OC)C1c1ccccc1F	-27	?	4	·	-3	-1	5.7	-3	-0.3	28*
O=C(O)C(=O)/C(=C\c1cccc2ccccc12)c1ccc2ccccc2n1	·	-10	0	-6%	·	·	·	-2	0.0	63*
CC(C)(C)NC(=O)C(c1ccccc1)N(C(=O)C1CSC(=O)C1)c1ccccc1 (stereo not given)	·	-1	-6	2%	·	·	·	-5	1.0	0.0
Cc1ccc(O)c(NC(=O)c2cc([N+](=O)[O-])ccc2Cl)c1	4.9	-15	13	4%	-6	-6	-5.5	-2	0.5	3.6
Cc1cc(SCC(=O)OCC(=O)NC(C)c2ccccc2)c(C)cc1Br (stereo not given)	·	7	17	-5%	·	·	·	0	-0.2	-1.2
O=C(NCCN1CCOCC1)c1ccc2c(c1)ncn2C1CCCC1	-1.1	-8	1	5%	10	16	-0.2	-1	-0.1	1.8
COCCCn1c(=O)c2ccccc2n(Cc2ccccc2C)c1=O	-0.1	15	54	·	-10	-12	-1.0	·	-0.4	5.0
CCCCc1nnc(NC(=O)C2CCN(c3ncnc4sc(C)c(C)c34)CC2)s1	-5.4	32	2	-24%	0	6	2.0	·	0.2	0.2
CC(C)n1c(SCc2ccccc2F)nc2c1c(=O)n(C)c(=O)n2C	0.6	4	5	14%	-26	-41	-8.9	0	-3.2	2.9
COc1cc(C2C(C#N)=C(SC)NC3=C2C(=O)CCC3)ccc1O (stereo not given)	3.3	-29	-1	-6%	3	0	2.7	-5	0.4	3.5
Cc1ccccc1NC(=O)COc1cccc2c1CCNC2=O	-7.2	-10	5	-6%	-2	1	-2.7	4	0.4	1.5
COC(=O)c1sc(N)c(C(=O)OC)c1CSc1nc2sc3c(c2c(=O)n1C)CCC3	·	32	-5	16%	·	·	·	0	-0.3	6.6
OCC(O)/C=N/Nc1nc(Nc2ccccc2)nc(Nc2ccccc2)n1 (stereo not given)	5.8	18	1	-6%	-10	-11	32	-1	0.7	0.8
O=C(N1CCN(c2ccccc2)CC1)C(F)(F)C(F)F	·	6	?	11%	4	6	-0.9	-2	1.4	-2.4
C#CCN1C(=O)C(O)(CC(=O)c2ccc3c(c2)OCCO3)c2ccccc21 (stereo not given)	9.1	-3	-33	0%	2	0	1.3	-15	-0.4	1.7

Marked active in RanGTP-Imp inh, of those listed so far:
structure	AF4-AF9 inh	Vif A3G	Ecoli rRNA inh	Ecoli rRNA inh OD600	Ecoli rRNA inh RFP	A1 inh	RanGTP-Imp inh
COC(=O)C1=CN(Cc2ccc(OC)c(OC)c2)C=C(C(=O)OC)C1c1ccccc1F	-27	·	-3	-1	5.7	-0.3	28*
O=C(O)C(=O)/C(=C\c1cccc2ccccc12)c1ccc2ccccc2n1	·	-6%	·	·	·	0.0	63*

(more compounds)
SMILES	AF4-AF9 inh	T cruzi inh	Calb FLC	Vif A3G	Ecoli rRNA inh	Ecoli rRNA inh OD600	Ecoli rRNA inh RFP	Beta apoptosis	A1 inh	RanGTP-Imp inh
CC(C)C(=O)Nc1nnc(S(=O)(=O)N2CCCCCC2)s1	-7.5	-4	-3	·	0	4	-0.6	-6	0.6	-0.2
CCOC(=O)c1ccc(NC(=O)CSCCC(=O)O)cc1	-1.2	-8	5	·	5	10	2.6	-3	1.0	2.3
Cc1cc(C)cc(N2C(=O)c3nccnc3C2=O)c1	2.7	-2	0	-2%	13	8	1.0	-2	0.0	3.2
Cc1cc(Cl)nc(SCC(=O)c2ccccc2)n1	0.5	6	-20	-2%	-14	-15	-5.4	3	-2.6	1.8
N=c1sccn1CC(=O)Nc1ccc(Cl)c(S(=O)(=O)N2CCOCC2)c1	·	-5	2	0%	·	·	·	-1	-0.2	-2.9
CN(CC(=O)NCc1cccnc1)S(=O)(=O)c1ccc(F)cc1	0.2	-3	-6	·	8	9	-0.9	-4	0.4	-1.9
COc1cccc(NC(=O)CSc2nc3ccccc3c3nc4ccccc4n23)c1	·	6	-1	2%	·	·	·	-3	0.6	7.6
O=C(Nc1cccc(O)c1)c1cc(-c2ccc3c(c2)OCO3)on1	-0.4	9	1	·	-2	7	1.2	-7	-7.3	1.2
COC(=O)/C(=C1\Oc2ccc(C(C)(C)C)cc2S1)C(F)(F)F	-3.4	-5	3	·	7	1	-2.1	7	-1.8	0.8
COc1cccc(NS(=O)(=O)c2ccc3[nH]cc(C(=O)NCCCOC(C)C)c(=O)c3c2)c1	·	-14	-3	0%&10%	·	·	·	-1	-0.2	?
COc1ccc(COC(=O)c2ccc(N3CCCC3=O)cc2)cc1F	·	-12	21	0%	·	·	·	-2	-0.7	2.3
COc1cccc(NC(=O)C2CCN(S(=O)(=O)c3ccc4[nH]c(=O)ccc4c3)CC2)c1	-0.7	4	1	·	-3	4	-4.1	1	0.7	2.4
COc1ccc(OCC(O)CNc2ccc(Br)cc2)cc1 (stereo not given)	5.8	7	7	70%	-19	-18	-0.1	-5	-0.3	?
CC(NC(=O)c1ccncc1)c1ccc(Br)cc1 (stereo not given)	1.6	2	-10	·	-12	-20	-1.8	-2	0.2	3.8
COc1ccc(CCNC(=O)Cc2ccc3c(c2)OCO3)cc1OC	·	-3	-30	·	·	·	·	3	-0.2	4.5
c1cncc(CN=C2Nc3ccccc3CS2)c1	-0.3	4	8	·	6	3	-0.1	-2	-0.6	-3.6
COc1ccc(NC(C)C(=O)N/N=C/c2c(O)ccc3ccccc23)cc1 (stereo not given)	-1.0	-5	4	1%	-12	-14	-2.7	64	0.1	0.8
NC(=O)C1CCN(C(=O)c2ccc3nc(-c4ccccc4)c(-c4ccccc4)nc3c2)CC1	2.3	10	-2	-9%	-3	12	-3.6	8	2.0	-0.4

Source: PubChem BioAssay (several laboratories)

An excerpt, so the mix of outcomes need not match the whole.
